Vaccinia mCherry = qHTS for Stage-Specific Inhibitors of Vaccinia Orthopoxvirus: mCherry Reporter Primary qHTS; Vaccinia virus mCherry reporter infection, fluorescence; about a quarter of the inactives have no number; Potency, µM (titrated, usually from 36.5 µM), for the others: at the top dose activity change, negative = inhibition, hits mostly inhibitors; 310,000 tested, 0.63% active; AID 720579, 2013; active = well fitted inhibition curve with a large enough effect; inconclusive = small, poorly fitted or top-dose-only effect; inactive = no such curve, though single readings can be large or run the other way; tested in A549 cells; note: nearly all actives have a fitted effect of over 35% in size; inactives centre near -10
Vaccinia Venus = qHTS for Stage-Specific Inhibitors of Vaccinia Orthopoxvirus: Venus Reporter Primary qHTS | Potency, µM (highest dose often 36.5 µM), for the others: at the highest dose activity change, negative = inhibition, actives largely listed as inhibitors | Vaccinia virus Venus reporter expression, fluorescence | AID 720580, 2013 | 330,000 tested, 0.46% active; active means well fitted inhibition curve with a large enough effect; inconclusive means small, poorly fitted or top-dose-only effect; inactive means no such curve, though single readings can be large or run the other way; tested in A549 cells; note: nearly all actives have a fitted effect of over 30% in size; inactives centre near -10
* = called active by the depositor; i = inactive; ? = inconclusive; · = no result given; & = joins results of further samples; [ ] = dose if it differs, or a comment. % is set by controls: 0 for no effect and ±100 for the full control effect; potency is the fitted concentration of half-maximal effect.

The first six records as a preview:
entry	SMILES	Vaccinia mCherry	Vaccinia Venus
1	CCOC(=O)C1CCN(C(c2cccnc2)c2c(NC(=O)c3ccco3)sc(C)c2C)CC1 (stereo unspecified)	?	?
2	COc1ccc(OCCn2c(CCNC(=O)C3CCCCC3)nc3ccccc32)cc1	22%	-12%
3	Cc1ccccc1NC(=O)CN1C(=O)CSc2ccccc21	-23%	24%
4	CCOC(=O)C1C(=O)OC(C)(C)C1C(C)C(=O)c1ccc(C)cc1C (stereo unspecified)	-9%	-15%
5	Cc1cc(=O)oc2c(C)c(OCC(=O)N3CCN(c4ccc(F)cc4)CC3)ccc12	i	-23%
6	Cc1cc(C)cc(C(=O)N(NC(=O)Nc2ccc(Cl)cc2)C(C)(C)C)c1	-18%	?

Main list (from the top)
entry	SMILES	Vaccinia mCherry	Vaccinia Venus
1	CCOC(=O)C1CCN(C(c2cccnc2)c2c(NC(=O)c3ccco3)sc(C)c2C)CC1 (stereo unspecified)	?	?
2	COc1ccc(OCCn2c(CCNC(=O)C3CCCCC3)nc3ccccc32)cc1	22%	-12%
3	Cc1ccccc1NC(=O)CN1C(=O)CSc2ccccc21	-23%	24%
4	CCOC(=O)C1C(=O)OC(C)(C)C1C(C)C(=O)c1ccc(C)cc1C (stereo unspecified)	-9%	-15%
5	Cc1cc(=O)oc2c(C)c(OCC(=O)N3CCN(c4ccc(F)cc4)CC3)ccc12	i	-23%
6	Cc1cc(C)cc(C(=O)N(NC(=O)Nc2ccc(Cl)cc2)C(C)(C)C)c1	-18%	?
7	COc1ccc(S(=O)(=O)NCc2ccc3c(c2)OCO3)cc1C	-11%	-6%
8	CCOc1ccc2nc(N3CCN(C(=O)c4ccc(S(=O)(=O)CC)cc4)CC3)sc2c1	-12%[7.34 µM]	-18%[7.34 µM]
9	O=C(O)c1ccc(NS(=O)(=O)c2ccc3c(c2)C(=O)c2ccccc2C3=O)cc1	?	-10%
10	COc1ccccc1N1CCN(c2ccc(NC(=O)c3ccc(C)cc3)cc2C(=O)O)CC1	-7%	3%
11	CC(C)=CC(=O)Nc1nnc(C(C)C)s1	-12%	-2%
12	CC(=O)Nc1cccc(NC(=O)C2CCN(C(=O)c3ccco3)CC2)c1	-24%	2%
13	CCCc1ccc(-c2ccc(C(=O)Oc3ccc(OCC)cc3)cc2)nc1	6%	14%
14	Nc1ccccc1S(=O)(=O)NC1=NCCCCC1	-8%	2%
15	CCN(CC#CCC(O)(c1ccccc1)c1ccccc1)C(C)C	-30%	-24%
16	CCC(=O)NC(Nc1nc(C)cs1)(C(=O)OC)C(F)(F)F (stereo unspecified)	-7%	-2%
17	O=C1NC(c2ccccc2)=NC1(Nc1ccccn1)C(F)(F)F (stereo unspecified)	i	-6%
18	COc1ccc(CNC(=O)CN2C(=O)COc3ccc(S(=O)(=O)Nc4ccccc4)cc32)cc1	-2%	-2%
19	CCN(Cc1ccccc1)S(=O)(=O)c1ccc(C(=O)N(CCCN(C)C)c2nc3cc(C)cc(C)c3s2)cc1	?	?
20	CCC/C(O)=C1\C(=O)CC(c2ccccc2)CC1=NC(C)C(=O)O (stereo unspecified)	-21%	-15%
21	C[C@H]1CN([C@@H](C)CO)C(=O)c2cc(NC(=O)C3CCCCC3)ccc2O[C@H]1CN(C)C(=O)Nc1ccc2c(c1)OCO2	i	-22%
22	CC1(C)COCN1C(=O)c1ccc(C#N)cc1	-6%	-16%
23	CCCCc1nnc(SC(C)C(=O)Nc2nccs2)n1C (stereo unspecified)	i	-2%
24	COc1cc(/C=C2/NC(=O)N(CC(=O)Nc3ccc(C)cc3)C2=O)ccc1Oc1ccc([N+](=O)[O-])cn1	-12%	-12%
25	CCCCC(=O)Nc1cc(OCC)c(NC(=S)NC)cc1OCC	-5%	-10%
26	O=C(NCc1ccccc1)c1cccc(F)c1F	-13%	-13%
27	O=c1cc(CSc2ccccn2)c2ccccc2[nH]1	-12%	-4%
28	Nc1c(C(=O)Nc2ccc(F)c(F)c2)sc2nc(-c3ccncc3)ccc12	-5%	6%
29	Cc1ccccc1-c1nn(-c2ccc(F)cc2F)cc1CNCC(C)O (stereo unspecified)	i	-17%
30	O=C(CSc1nncn2c1cc1occc12)Nc1ccc(F)c(Cl)c1	-2%	2%
31	c1ccc(CNCCc2ccc3c(c2)OCO3)nc1	-8%	-2%
32	COC1(C)CC2C(CC1OC(=O)c1cc([N+](=O)[O-])cc([N+](=O)[O-])c1)C2(C)C (stereo unspecified)	-20%	0%
33	FC(F)(F)c1cnc(Oc2ccccc2-c2nnco2)c(Cl)c1	-12%[1.46 µM]	-8%
34	COc1cc([N+](=O)[O-])ccc1N=Nc1c(N)[nH]n(-c2ccccc2)c1=O	-2%	-4%
35	COC(=O)c1ccc(NC(=O)CSc2nc3c(c(=O)n(C)c(=O)n3C)n2Cc2ccccc2)cc1	-6%	1%
36	O=C(COC(=O)c1ccc(O)cc1)Nc1ccc(N2CCCCC2)cc1	-25%	-9%
37	COc1ccc(C(c2nnnn2Cc2ccc(F)cc2)N2CCN(c3ccc(OC)cc3)CC2)cc1 (stereo unspecified)	·	-16%
38	CCOc1ccc(N/C=C\C(=O)c2ccc3c(c2)OCO3)cc1	-10%	-4%
39	Cc1ccc(CN2CCC(CNC(=O)c3cnn(-c4ccc(C)cc4)c3C3CCN(C(=O)OC(C)(C)C)CC3)CC2)cc1	-7%	-12%
40	COc1ccc(NC(=O)c2cccnc2Sc2ccccc2)c(OC)c1	i	1%
41	O=C(CSc1nnc(NCc2ccccc2)s1)N1CCOCC1	i	-14%
42	COc1ccc(CN2C(=O)CCC2(C)c2nnnn2-c2c(C)cccc2C)cc1 (stereo unspecified)	-11%	-12%
43	CCN(C(=O)COC(=O)c1cc(-c2ccccc2)nc2ccc(Br)cc12)C1CCS(=O)(=O)C1 (stereo unspecified)	-5%	-1%
44	COc1ccc(-c2cc(C(F)(F)F)nc(-n3ccnc3)n2)cc1	-7%	6%
45	CCCCCC1C(=O)O[C@H](C)[C@@H](NC(=O)c2cccc(NC=O)c2O)C(=O)OC(C)C1OC(=O)CC(C)C (stereo partly specified)	-36%	-42%
46	O=C(Nc1ccc(Cl)c(Cl)c1)N(Cc1cccnc1)Cc1ccco1	-14%	-9%
47	CN1CCN(C(=O)CN(CCc2ccccc2)S(C)(=O)=O)CC1	i	-6%
48	CC(C)CN(C(=O)CSc1nnc2ccccn12)c1c(N)n(CC(C)C)c(=O)[nH]c1=O	·	-9%
49	COc1ccc(NC(=O)C2CCCN(S(=O)(=O)c3cccc4cccnc34)C2)c(OC)c1 (stereo unspecified)	-6%	-3%
50	CC1CCCN(CCC(=O)c2ccc(Br)cc2)C1 (stereo unspecified)	·	?

An excerpt of these results, with two lines to a compound.
Fields: Vaccinia mCherry, Vaccinia Venus
(32) COC1(C)CC2C(CC1OC(=O)c1cc([N+](=O)[O-])cc([N+](=O)[O-])c1)C2(C)C (stereo unspecified)
    -20%, 0%
(35) COC(=O)c1ccc(NC(=O)CSc2nc3c(c(=O)n(C)c(=O)n3C)n2Cc2ccccc2)cc1
    -6%, 1%

Full records as entered above. Order of screens: Vaccinia mCherry, Vaccinia Venus
Entry for COc1ccc(C(c2nnnn2Cc2ccc(F)cc2)N2CCN(c3ccc(OC)cc3)CC2)cc1 (stereo unspecified) : ·, -16%
Entry for O=C(CSc1nncn2c1cc1occc12)Nc1ccc(F)c(Cl)c1 : -2%, 2%

Remaining list, next part.
entry	SMILES	Vaccinia mCherry	Vaccinia Venus
51	COc1ccc(Cn2c3ccc(OC)cc3c3nc4ccccc4nc32)cc1	-11%	-8%
52	NC(=O)c1nsc(C(=O)N(Cc2ccc(F)cc2)C(C(=O)NCC2CCCO2)c2ccc(O)cc2)c1N (stereo unspecified)	1%	-4%
53	NCCCP(=O)(O)CCc1ccccc1	?	-14%
54	Cn1c(SCc2cccc(C(F)(F)F)c2)nnc1-c1ccco1	-20%	-9%
55	COCCNC(=S)N1CCN(c2nc(-c3cccc(OC)c3)cs2)CC1	?	-10%
56	COc1ccccc1-c1nn2c(-c3cc(C)[nH]n3)nnc2s1	?	?
57	CCCn1c(SCC(=O)Nc2nc3ccccc3s2)nc2c1c(=O)n(C)c(=O)n2C	i	-10%
58	COc1ccc2cc(CCNC(=O)C3CC3)c(=O)[nH]c2c1	-11%	-5%
59	COc1ccc(N2CCN(C(=O)c3oc4ccccc4c3NC(=O)c3ccccc3OC)CC2)cc1	-24%	-14%
60	Cc1ccc(NC(=S)NCC2CCN(C(C)c3ccccc3)C2)cc1 (stereo unspecified)	?	-9%
61	O=C(Nc1ccccc1Cl)c1cc(S(=O)(=O)N2CCC3(CC2)OCCO3)ccc1F	3%	-7%&-13%
62	CC(C)(C)C(=O)OC1=CN(Cc2ccccc2)S(=O)(=O)c2ccccc21	11µM*	?
63	O=C(Nc1ccc2nc(SCC(=O)N3CCc4ccccc43)sc2c1)c1ccccc1	-9%	-3%
64	Cc1ccc(NC(=O)COC(=O)c2sccc2C)cc1S(=O)(=O)N1CCOCC1	i	-9%
65	CCCCCCCCCCOC(=O)Cn1c(COc2cccc(C)c2)[n+](C)c2ccccc21	-4%	?
66	CCOc1cccc(/C=N/Nc2ccc(S(=O)(=O)N(CC)CC)cn2)c1O	?	?
67	O=[N+]([O-])c1cc(C(F)(F)F)ccc1Cl	i	-11%
68	Cc1ccc(CNC(=O)c2sc3nc4n(c(=O)c3c2C)CCCCC4)cc1	-5%	-10%
69	CC(=O)N1CCN=C1SCc1ccc(Cl)cc1	12%	-8%
70	Cc1c(Cl)cccc1NC(=O)CC1Sc2ccccc2NC1=O (stereo unspecified)	i	-16%
71	NC(=O)CSc1ccc(Br)cc1	-14%	-2%
72	COc1cccc(CNCc2c(C(=O)O)c(C)n(Cc3ccc(F)cc3Cl)c2C)c1OC	-13%	-3%
73	Cc1nn(-c2ccccc2)c(-c2ccccc2[N+](=O)[O-])c1C(=O)O	-21%[7.34 µM]	-9%[7.34 µM]
74	CCOc1ccc(NC(=O)CC2C(=O)N(c3ccccc3)C(=O)N2C2CCCC2)cc1 (stereo unspecified)	-9%	-8%
75	C/C(=N/OC(=O)c1ccc(C)cc1)c1cccs1	-16%	-12%
76	CC(C)N(Cc1ccccc1)C(=O)COC(=O)c1ccc(S(=O)(=O)N2CCOCC2)cc1	-12%	-1%
77	CCCCCCN1CC(=O)N2Cc3[nH]c4ccccc4c3C[C@H]2C1=O	-14%	-14%
78	Cc1nn(-c2cc(C)c3ccccc3n2)c2c1C1C(C2)C1(C)C (stereo unspecified)	-10%	-4%
79	COc1ccc(OC)c(Nc2ccc(Nc3cc(OC)ccc3OC)nn2)c1	-29%	-26%
80	Cc1ccc(NC(=O)CCNS(=O)(=O)c2ccc(Br)s2)cc1	-24%&-29%	-25%&-18%
81	CCOC(=O)C1=C(COC(=O)CCc2ccc(CC)cc2)NC(=O)NC1C (stereo unspecified)	-10%	-4%
82	CSc1ccccc1NC(=O)CN(c1cccc(C)c1)S(C)(=O)=O	-12%	-19%
83	CCCCn1c(N)c(N(CC(C)C)C(=O)COC(=O)Cc2c(C)nc3ccccc3c2C)c(=O)[nH]c1=O	-19%	-10%
84	Cc1ccc(C(CC(=O)NCc2ccco2)c2ccccc2)c(O)c1 (stereo unspecified)	i	-8%
85	CCCCn1c(SCC(=O)Nc2cc(C)on2)nnc1-c1ccncc1	-5%	2%
86	COC(=O)c1sccc1S(=O)(=O)N(CC(=O)NCc1ccccc1)c1ccc(C)cc1	-8%	-3%
87	COc1ccc(CC(=O)OCC(=O)N2c3ccccc3CC2C)cc1OC (stereo unspecified)	-10%	-9%
88	Cc1cccc2cc(-c3nc4c(C)cccn4c3NCc3ccco3)c(=O)[nH]c12	·	-15%
89	Cc1nc2c(C#N)cnn2c2c1CCNN2C	-16%	-12%
90	CCOC(=O)c1ccccc1NC(=O)c1sc2nc3n(c(=O)c2c1C)CCCCC3	-2%	-9%
91	Cn1c(SCC(=O)c2cccs2)nnc1-c1ccco1	-12%	-4%
92	CCCn1c(-c2cccs2)nc2c1c(=O)[nH]c(=O)n2Cc1ccccc1	-8%	-9%
93	CCC(OC(=O)c1ccco1)C(=O)NCc1ccco1 (stereo unspecified)	-10%	-9%

In a second layout: results already given.
[89] Cc1nc2c(C#N)cnn2c2c1CCNN2C
[79] COc1ccc(OC)c(Nc2ccc(Nc3cc(OC)ccc3OC)nn2)c1
[82] CSc1ccccc1NC(=O)CN(c1cccc(C)c1)S(C)(=O)=O
[85] CCCCn1c(SCC(=O)Nc2cc(C)on2)nnc1-c1ccncc1
[76] CC(C)N(Cc1ccccc1)C(=O)COC(=O)c1ccc(S(=O)(=O)N2CCOCC2)cc1
Screen / compound no.	89	79	82	85	76
Vaccinia mCherry	-16%	-29%	-12%	-5%	-12%
Vaccinia Venus	-12%	-26%	-19%	2%	-1%

Source: PubChem BioAssay
